Screens from PubChem BioAssay.
PABP FP inh: PABP poly(A) RNA binding inhibitors, primary screen, biochemical, fluorescence polarization, uHTS. Polyadenylate-binding protein 1 (Homo sapiens), P11940. inhibition, % at 35 µM. 290,000 compounds, 1% hits;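 active = 50% or more with normal probe brightness, or confirmed in later tests; about a fifth of its hits are not listed in these tables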;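 note: calls also rest on retests at 20 µM and on dose response follow-up; controls were probe without protein and protein plus probe with vehicle; some compounds called inactive have numbers as strong as hits; many hits fall short of the cut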
Env fusion inh: inhibitors of HIV-1 Env-driven cell-cell fusion, primary screen, HeLa-JRFL effector, CEM21 target cells, luciferase; inhibition, % at 12.3 µM; 360,000 compounds, 1.1% hits; AID 651610, 2012;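 active = mean replicate inhibition score of at least 50 and every replicate individually at or above 50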;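 note: 0% = plate neutral controls and 100% = maraviroc near 300 nM; one replicate is shown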
CSC inhib: cancer stem cell viability inhibitors, primary screen, luminescence | cancer stem cell-like cells viability | inhibition, % at 7.5 µM | AID 2717, 2010 | 300,000 compounds, 1.1% hits;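 active = mean at 75% or more and at least half the replicates too; tested in HMLE shEcad cells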;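 note: 0% = median of negative and 100% = median of positive control wells; the first replicate is given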
Rce1 inhib: yeast Rce1p protease inhibitors, primary screen, biochemical, fluorescence, cell-free homogeneous | CAAX prenyl protease 2 (Saccharomyces cerevisiae (strain ATCC 204508 / S288c)), Q03530 | yeast membranes, quenched prenylated peptide cleavage fluorescence | calls only | 290,000 compounds, 0.27% hits | AID 2563, 2010;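 active = fall in fluorescence gain of 50% or more versus controls, with final raw signal at or below 3038400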;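 note: plate controls were neutral control wells for no effect and wells lacking membranes for full effect; tested at 10 µM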
Target sequence (Q03530 whole entry, looked up): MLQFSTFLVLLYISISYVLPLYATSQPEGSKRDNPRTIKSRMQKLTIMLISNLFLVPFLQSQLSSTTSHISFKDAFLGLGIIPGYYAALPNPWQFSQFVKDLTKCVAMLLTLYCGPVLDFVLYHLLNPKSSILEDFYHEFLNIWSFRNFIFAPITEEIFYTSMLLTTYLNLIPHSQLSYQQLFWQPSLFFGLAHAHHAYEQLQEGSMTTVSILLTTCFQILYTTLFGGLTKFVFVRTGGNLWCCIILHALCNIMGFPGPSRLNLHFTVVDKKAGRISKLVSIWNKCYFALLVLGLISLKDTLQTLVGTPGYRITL
eIF4H inh: human eIF4H binding inhibitors, primary screen, translation initiation inhibitor project, biochemical, uHTS, fluorescence polarization. Eukaryotic translation initiation factor 4H (Homo sapiens), Q15056. eIF4H fluorescence polarization binding assay. inhibition, % at 35 µM. 290,000 compounds, 0.94% hits. AID 2012, 2009;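 active = 50% or more with normal probe brightness, or confirmed in later tests; about a fifth of its hits are not listed in these tables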;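 note: calls also rest on retests at 20 µM and on dose response follow-up; 0% = protein and probe with vehicle and 100% = probe without protein; strong numbers were not always called active; many hits fall short of the cut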
MT1-MMP act inh: blockers of MT1-MMP proenzyme processing, primary screen, HT1080 RFP-PRO-GFP cells, GFP/RFP fluorescence; GFP/RFP ratio fluorescence, overnight; percent of plate control window, DMSO zero; GFP/RFP ratio change, % at 20 µM; 360,000 compounds, 0.061% hits; AID 651647, 2012;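 active = GFP/RFP ratio change of at least 30% with cell ATP level not reduced by more than half and red fluorescence within 50% of control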; note: strong numbers were not always called active
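Assay system: HT1080 RFP-PRO-GFP cells. Benchmarks: DMSO vehicle wells and RFP-L50D-GFP reporter cell wells. Times: overnight cell settling, then overnight compound exposure, 37 °C, 5% CO2. Compound: 20 µM single dose, 1% DMSO. Read-out basis: GFP/RFP fluorescence ratio.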
Yeast UUG start: modulators of yeast start codon fidelity, primary screen, whole organism, S. cerevisiae, single point, plate reader; S. cerevisiae UUG-firefly luciferase reporter, luminescence/redox ratio; activity score, % at 18.7 µM; 350,000 compounds, 0.13% hits; AID 602363, 2012;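 active = replicate mean at a twofold rise or more, about +100% in these data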;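 note: firefly luciferase made from a UUG start codon reports start codon fidelity; reporter light over untreated wells divided by growth signal over untreated wells; some hits fall short of that in this replicate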
eIF4H inh retest: recorded beside eIF4H inh, whose call it bears; inhibition, %; compound at 20 µM; confirmation average;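 mean of two retest wells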
PABP FP inh retest: further read-out of PABP FP inh, marked with its call; inhibition, %; compound at 20 µM; confirmation repeats;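 mean of two retest wells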
MT1-MMP act inh RFP: further read-out of MT1-MMP act inh, marked with its call; RFP signal change, %; measured here: RFP expression control read;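 0 = vehicle wells; hits needed this value within 50% of zero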
Starred values were filed as active, the others as inactive; i = inactive; . = not tested or not shown; & = joins results of further samples.

SMILES | PABP FP inh | Env fusion inh | CSC inhib | Rce1 inhib | eIF4H inh | MT1-MMP act inh | MT1-MMP act inh RFP | Yeast UUG start | others
COc1cccc(NC(=S)N(CCc2nc3cc(C)c(C)cc3[nH]2)Cc2cccnc2)c1 | -14.7 | . | . | i | 8.0 | -2.8 | -5.4 | -10.5
CCN(CC)S(=O)(=O)c1cc(NC(=O)COC(=O)Cn2cnc3ccccc32)ccc1C | 3.5 | 25.4 | -1.9 | i | 3.5 | -3.0 | 5.5 | .
CCS(=O)(=O)n1nc(C(=O)N2CCOCC2)nc1N | 2.9 | -52.6 | -7.9 | i | -4.9 | -2.2 | 1.2 | -1.3
COc1ccc(-c2ccc(C(=O)O)o2)c([N+](=O)[O-])c1 | -0.9 | -8.5 | 5.0 | i | 20.5 | -1.3 | 4.1 | .
CN(c1ccc(C(=O)Nc2cccnc2)cc1)S(=O)(=O)c1ccc(Cl)cc1 | -8.5 | 8.6 | 1.4 | i | -22.9 | -7.4 | -8.3 | -19.6
O=C(OCc1cnc(Cl)s1)c1cccc(Cl)c1 | -11.2 | . | -7.2 | i | 1.6 | 0.3 | -3.7 | -17.6
CCOC(=O)CNC(=O)CN1C(=O)CC(c2ccco2)Sc2ccccc21 (stereo unspecified) | -2.2 | 14.2 | -25.3 | i | 11.9 | 0.9 | 2.4 | 2.9
C[C@H]1CN([C@@H](C)CO)C(=O)CCCn2nncc2CO[C@@H]1CN(C)Cc1ccccc1 | . | 5.1 | . | . | . | 2.3 | 6.4 | -15.0&-2.4
CCCCOc1cccc(C(=O)NC(=S)Nc2ccc(Cl)c(C(=O)O)c2)c1 | 8.0 | -4.6 | -7.1 | i | -4.3 | -4.5 | -0.1 | -4.7
CC(=O)c1ccc(NC(=O)CN2CCC(C(=O)c3ccc(F)cc3)CC2)cc1 | -14.1 | -2.2 | . | i | -10.1 | -3.1 | -5.1 | -8.1
O=C/C(=C\Nc1ccc(C(=O)N2CCOCC2)cc1)c1nc2ccccc2o1 | 4.3 | 1.1 | 7.0 | i | -7.1 | -4.6 | 1.3 | -8.4
CCOc1ccc(-c2csc(C3COc4ccccc4O3)n2)cc1 (stereo unspecified) | . | -128.5 | 6.4 | i | . | -0.1 | -1.7 | -18.8
CCOC(=O)Cc1csc(NC(=S)NC(=O)c2ccc([N+](=O)[O-])cc2)n1 | -3.9 | -22.4 | 15.8 | i | -5.2 | -0.3 | -0.8 | .
N#Cc1ccccc1NC(=O)CN(Cc1ccccc1)Cc1ccccc1 | 9.2 | 17.9 | 9.3 | i | 0.2 | -2.8 | -2.2 | .
S=C(NC1CCCC1)NN1CCOCC1 | 83.9 | -3.7 | -11.1 | . | -2.5 | -0.7 | 4.5 | . | eIF4H inh retest=-4.8;PABP FP inh retest=42.5
O=C(O)c1cc(-c2ccccc2)nc(-c2ccccc2)c1 | . | . | 24.9 | . | . | 1.4 | 0.4 | -15.6
COc1ccc(-c2nn(-c3ccccc3)cc2C(=O)NCC(c2cccs2)N2CCOCC2)cc1 (stereo unspecified) | . | 1.1 | 10.0 | i | . | -2.6 | -4.4 | .
CC(=O)OCC1(C)CN(c2ccccc2)N(C(C)=O)C1=O (stereo unspecified) | -4.7 | -3.9 | 23.4 | i | -3.1 | -5.6 | 4.4 | .
Cc1ccc(C(=O)c2coc3ccc(OCC(=O)O)cc23)cc1 | 13.3 | . | -2.4 | i | -10.0 | -2.4 | 4.0 | 11.9
COc1ccc2[nH]c3c(c2c1)CCN1C(=O)C(CC(=O)NCCC2=CCCCC2)C[C@H](C(=O)N2CCOCC2)[C@@]31CCC1CCCC1 (stereo partly specified) | . | -22.3 | . | . | . | -16.6 | -16.4 | -8.9

Reprinted from the part before: 3 entries, followed by the next part.
SMILES | PABP FP inh | Env fusion inh | CSC inhib | Rce1 inhib | eIF4H inh | MT1-MMP act inh | MT1-MMP act inh RFP | Yeast UUG start | others
CC(=O)OCC1(C)CN(c2ccccc2)N(C(C)=O)C1=O (stereo unspecified) | -4.7 | -3.9 | 23.4 | i | -3.1 | -5.6 | 4.4 | .
Cc1ccc(C(=O)c2coc3ccc(OCC(=O)O)cc23)cc1 | 13.3 | . | -2.4 | i | -10.0 | -2.4 | 4.0 | 11.9
COc1ccc2[nH]c3c(c2c1)CCN1C(=O)C(CC(=O)NCCC2=CCCCC2)C[C@H](C(=O)N2CCOCC2)[C@@]31CCC1CCCC1 (stereo partly specified) | . | -22.3 | . | . | . | -16.6 | -16.4 | -8.9
c1ccc(CCC2Cc3ccccc3N2)cc1 (stereo unspecified) | . | -7.5 | 0.8 | . | . | 0.1 | -2.2 | -15.1
Cc1ccc(C(=O)Nc2cccc(NC(=O)c3ccc(C)cc3)n2)cc1 | . | -17.4 | -5.4 | i | . | 6.1 | 3.3 | -24.7
O=C(CN1C(=O)NC2(CCCCCCC2)C1=O)NCc1cccs1 | 3.9 | 4.0 | -8.2 | i | 14.1 | -2.1 | 2.4 | -6.1
C=CCc1ccc(OCCOc2cccc3ccc(C)nc23)c(OC)c1 | 2.7 | 1.8 | 1.3 | i | 3.6 | 6.3 | -0.5 | -24.8
COc1ccc(CCCNC(=O)C2Cc3c(-c4cccc(C(C)=O)c4)ccnc3O2)cc1 (stereo unspecified) | . | -186.3 | . | . | . | 3.2 | -8.7 | 2.0
Cc1nnc(NC(=O)CN2C(=O)NC3(CCCC3)C2=O)s1 | . | 8.7 | -5.9 | i | . | -0.5 | 3.1 | -9.9
CN1CCN(C(=O)c2ccc3nc(-c4ccccc4)c(-c4ccccc4)nc3c2)CC1 | 23.9 | 0.4 | 3.9 | i | 5.8 | -1.1 | -4.4 | .
CN(Cc1c(F)cccc1Cl)C(=O)CNC(=O)c1cccs1 | -4.9 | . | -9.3 | . | -5.4 | -0.8 | 1.6 | -19.8
C[C@H](CO)N1C[C@H](C)[C@H](CN(C)Cc2cncnc2)Oc2ncc(C#CC3(O)CCCC3)cc2C1=O | . | -4.5 | . | . | . | 2.5 | 7.6 | 10.6&13.9&11.0
O=C(CSc1nc2ccccc2n1CC(=O)NCc1ccccc1)NCc1ccco1 | 3.1 | . | -21.6 | i | 8.9 | 1.5 | 4.2 | -15.2
Oc1c(N=NC(=S)Nc2ccccc2F)c2ccccc2n1Cc1ccc(F)cc1 | 11.8 | 31.4 | 40.8 | i | 14.5 | 0.3 | -7.0 | .
O=C(Nc1ccc(OC(F)(F)F)cc1)c1ccc2nccnc2c1 | -13.1 | 0.9 | -7.7 | i | -10.4 | 0.3 | -20.0 | -13.8
CC(=O)Nc1ccc2oc(-c3ccccc3)nc2c1 | -4.9 | -71.2 | 3.1 | i | 2.0 | 1.4 | 1.3 | .
CC(=O)N/C(=N/c1nc(C)cc(C)n1)Nc1ccc(C)cc1C | -2.5 | 8.6 | 2.5 | i | -6.7 | 1.1 | -2.6 | -8.1
O=C(Nc1cccc(F)c1)c1cccc2c1C(=O)N(C1CCCCC1)C2 | 1.9 | -13.1 | -11.5 | i | -1.8 | -0.7 | -4.1 | -11.5
O=C1SC(SCc2ccccc2Cl)=N/C1=C\c1ccc(C(=O)O)cc1 | -15.0 | -6.5 | -5.8 | i | 12.0 | 3.7 | 2.2 | .
COc1ccc([N+](=O)[O-])c(S(=O)(=O)c2ccc(Cl)cc2)n1 | -2.2 | 15.8 | 39.0 | i | -1.7 | 2.0 | -8.1 | -59.1
Cc1cc(C)cc(NC(=S)N2CCC(c3nc4ccccc4s3)CC2)c1 | -5.9 | . | . | i | 1.3 | 2.7 | -0.5 | -25.0
CCOC(=O)COc1ccc(/C=C2/SC(=Nc3ccccc3)N(Cc3cccnc3)C2=O)cc1OC | -4.0 | . | -8.9 | i | -4.1 | 6.8 | -14.5 | -15.4
O=C(NNC(=O)C(c1ccccc1)c1ccccc1)c1ccccn1 | -5.4 | 74.3* | 27.1 | i | 11.1 | 1.2 | -3.4 | .
CC(C)(C)n1cnnc1Sc1ccc([N+](=O)[O-])cn1 | -0.4 | -18.5 | 6.6 | i | -2.2 | 1.7 | -2.4 | -15.9
O=C(COC(=O)c1cccs1)Nc1ccccc1Cl | 5.3 | -4.7 | -12.7 | i | -10.8 | 0.8 | 0.6 | 1.0
Cc1cccc(OCCC(=O)OCc2csc(CC(=O)Nc3ccccc3C)n2)c1 | . | -4.7 | -10.5 | . | . | -0.1 | -0.1 | -11.3
Cc1ccc(C(=O)CSc2nc(N)cc(=O)[nH]2)cc1C | -6.7 | -13.2 | -7.3 | i | -6.9 | 0.4 | -8.0 | 8.1
CC1CC(C)(C)NC(=S)N1CCCC(=O)Nc1ccc(F)cc1 (stereo unspecified) | 11.8 | 8.2 | 12.3 | . | -13.6 | . | . | -17.6
CCCc1ccc(S(=O)(=O)NCC2CCCN2CC)cc1 (stereo unspecified) | 3.0 | 12.1 | -7.7 | i | -2.2 | 1.5 | -0.4 | -16.2
COc1ccc(NCC(O)Cn2c(C)c(C)c3ccccc32)cc1 (stereo unspecified) | 8.3 | 1.0 | 24.0 | i | 7.3 | 2.2 | -3.3 | .
O=c1[nH]c(=O)n(-c2ccccc2)c2c1C(C(F)(F)F)(C(F)(F)F)N=C(C1CCCCC1)N2 | -3.6 | -32.7 | 7.2 | i | 1.5 | -3.9 | -2.6 | 15.2
CCOC(=O)N1CCN(C(=O)CCNS(=O)(=O)c2ccccc2)CC1 | -5.9 | 8.0 | -8.6 | i | -7.4 | -0.8 | -3.0 | -3.2
COc1ccc(-n2nc3c(c2NC(C)=O)CS(=O)(=O)C3)cc1 | -7.2 | 6.8 | -8.2 | i | -9.3 | -1.0 | 2.2 | -14.5
COc1ccccc1-n1c(SCc2cc(=O)oc3cc(O)ccc23)nc2ccccc2c1=O | 5.3 | . | 35.2 | i | 40.1 | -10.7 | -1.6 | .
CCC(CC)NC(=O)CN1CCN(S(=O)(=O)c2ccc(Br)s2)CC1 | . | 6.9 | . | . | . | 2.0 | 4.1 | -16.9
CN1C(=O)C(C)(C)c2cc(S(=O)(=O)N3CCCC(C(=O)NCc4ccccc4Cl)C3)ccc21 (stereo unspecified) | -1.6 | -12.9 | -7.3 | i | -0.5 | 2.1 | -12.8 | -14.8
CCCC[C@@H]1C=C(C(=O)O)[C@H](c2ccc(Cl)c(Cl)c2)N1S(=O)(=O)c1ccc(C)cc1 | . | 23.6 | . | . | . | 4.9 | -1.0 | -18.7
Brc1ccccc1-c1nnc(CSc2nnc3sc4ccccc4n23)o1 | 7.5 | -41.3 | . | i | 7.2 | 1.9 | 0.8 | -20.0
COC(=O)C1=C(C(=O)OC)[C@@H]2N(C)c3ccc(OC)cc3[C@@]23C[C@@H](C(=O)OC)N(C(=O)c2ccc(Br)cc2)C3=N1 | 6.1 | 10.3 | 34.7 | i | 0.1 | -1.2 | -0.6 | -22.1
CC(=O)C1=C(O)C(=O)N(Cc2ccco2)C1c1ccccc1F (stereo unspecified) | -4.7 | 4.0 | 1.2 | i | 4.5 | 3.5 | 1.3 | .

The list is partial, so the mix of outcomes need not match the whole.
